# High-throughput results from PubChem.
# MgrA-DNA mod: S. aureus MgrA activity modulators, primary screen, biochemical, S. aureus Newman, fluorescence polarization | MgrA-DNA binding | inhibition, %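 (about 10 µg/mL by stock and volumes)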 | 84,000 tested, 0.13% active;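 active means above 50% in either of two replicates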;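 further: 0% = protein plus DNA without compound and 100% = DNA alone without protein; higher means less MgrA bound to DNA so lower polarization; one replicate is shown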
# Sa helicase inh: inhibitors of S. aureus replicative helicase, primary screen, biochemical, fluorescence unwinding readout; purified S. aureus helicase, fluorescence unwinding assay; about half of the hits fall short of the stated cut; inhibition, %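 (tested at about 80 µM)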; 120,000 tested, 0.05% active; AID 485395, 2010;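 active means both duplicates at 50% or more, or one of them with a favoured structure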;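 further: 0% = mean of negative control wells and 100% = mean of positive control wells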
# Starred values were filed as active, the others as inactive; . = no result given. An excerpt; the hit share may differ from the screen's.
SMILES,MgrA-DNA mod,Sa helicase inh
Cn1nnnc1SCCNCc1ccccn1,-0.5,5
COc1ccc(C(=O)Nc2ncnc3sc4c(c23)CCCC4)cc1OC,.,-17
Clc1ncc(C=NCc2ccccc2)s1,-1.0,.
COc1cc2c(cc1OC)C(C)N(S(=O)(=O)c1ccc3[nH]c(=O)ccc3c1)CC2 (stereo not drawn),0.6,-1
O=C1CN(c2ccccc2)C(=S)N1C(=O)c1ccccc1,3.2,7
O=C(CCS(=O)(=O)c1ccc(Br)cc1)N1CCCCCC1,1.9,-17
O=C(CSc1ccccc1)N1CCC(n2cccc2)CC1,-3.8,.
CCOC(=O)c1c(NC(=O)COC(=O)/C=C/c2ccco2)sc(CC)c1C,.,-6
CCc1ccc(OCc2ccc(C(=O)Nc3nc4ccccc4n3CCN3CCCCC3)o2)cc1,.,0
CCOC(=O)c1cnc2c(C(F)(F)F)cccc2c1N1CCN(C)CC1,-0.2,-13
COC(=O)c1ccc(NC(=O)N2CCOc3ccc(C)cc32)cc1,0.2,-12
C=CCn1c(=S)sc2c(C(C#N)C#N)ncnc21,3.2,.
Cc1ccc(C(=O)n2nc(C)c(Sc3ncccn3)c2C)cc1,4.7,.
COc1ccccc1N(CC(=O)Nc1cc(C)on1)S(=O)(=O)c1ccc(Cl)cc1,.,2
CCOC(=O)c1c(C)c(C#N)c(/N=C/N(C)C)n1-c1ccc(Cl)cc1Cl,0.1,.
COc1ccc(C/C(N)=N/O)cc1,.,7
O=C(NC1CC1)C1c2ccccc2C(=O)N2CCc3ccccc3C12 (stereo not drawn),.,15
OCCNc1nc(-c2cccnc2)nc2ccccc12,-3.7,6
CCN(c1ccccc1)c1nc2ccccc2n2cnnc12,.,16
CCO/C=N/S(=O)(=O)c1ccccc1,.,12
CCO/C=N/c1oc(-c2ccccc2)nc1C#N,.,-22
O=C(N/N=C/c1cccc(S(=O)(=O)N2CCOCC2)c1)C1=COCCO1,.,7
CC(=O)Oc1ccc2c(c1)oc(=O)c1ccccc12,-1.8,.
CCc1ccc(NS(=O)(=O)c2ccc3[nH]cc(C(=O)N4CCCCC4)c(=O)c3c2)cc1,.,-11
Cc1cc(NN)nc(-c2ccccc2O)n1,3.0,5
Cc1ccc(/C=C(\C#N)S(=O)(=O)c2c(N)oc(C)c2C)cc1,9.4,.
Cn1c(C2CC2)n[nH]c1=S,4.3,3
O=C1OC(c2ccccc2)=N/C1=C\c1ccccc1C(F)(F)F,1.9,6
N#Cc1ccc(COC(=O)c2cc3ccccc3c(=O)[nH]2)cc1,.,-8
CC12CN3CC(C)(CN(C1)C3c1ccc(O)cc1O)C2=O (stereo not drawn),0.3,13
O=C(CSc1nnc(-c2ccncc2)o1)NC1C2CC3CC(C2)CC1C3 (stereo not drawn),3.9,1
CC1CCCCC1NC(=O)COC(=O)/C=C/c1ccc2c(c1)OCO2 (stereo not drawn),.,15
O=c1oc2cc(O)ccc2cc1-c1cccc(Br)c1,-0.6,10
NC(C(=O)O)C12CC3CC(CC(C3)C1)C2 (stereo not drawn),.,19
Cc1ccc(C(=O)N/C(=C\c2cccnc2)C(=O)N2CC3CC(C2)c2cccc(=O)n2C3)cc1 (stereo not drawn),.,3
CCC(=O)N(Cc1cc(=O)[nH]c2ccccc12)C1CCCCC1,0.2,11
CCC(C)(C)n1nnnc1C(C(C)C)N(Cc1cccnc1)Cc1ccco1 (stereo not drawn),-1.9,5
O=C(NCc1ccco1)C1c2ccccc2Oc2ccccc21,.,-22
Cc1ccc(-c2nnc(N(CC(C)C)C(=O)c3ccco3)s2)cc1,0.3,18
CC(C)(C)C(=O)CSc1nc2c(sc(=S)n2CCc2ccccc2)c(=O)n1Cc1ccco1,-0.8,5
COc1ccc(C2=NOC(C(=O)NCCc3ccccc3)C2)cc1 (stereo not drawn),.,-12
O=S(=O)(c1ccc(Br)cc1)N1CCOCC1,1.1,-5
Cc1cccnc1NC(=O)c1ccccc1C(=O)O,.,2
O=C1OCCC1OC(=O)C12CC3CC(CC(C3)C1)C2 (stereo not drawn),-2.4,-2
O=C(Cc1ccc(-n2c(=S)[nH]c3ccccc3c2=O)cc1)NC1CCCCC1,0.1,11
N#Cc1cnc(Nc2cccc(C(F)(F)F)c2)nc1N,-1.5,.
CCCc1ccc(OCCNC(C)=O)c(OC)c1,-0.8,0
O=C(CN1CCN(C2CCCCC2)CC1)N(c1ccccc1)c1ccc(O)cc1,-30,8
CCCN1CC=C2C(C#N)=C(N)C(C#N)(C#N)C3(C(=O)Nc4ccccc43)C2C1 (stereo not drawn),33,-2
Cc1c(N/C=C/C(=O)C(F)(F)F)c(=O)n(-c2ccccc2)n1C,.,0
CCN1CCN(C(c2cccnc2)c2c(NC(C)=O)sc3c2CCCC3)CC1 (stereo not drawn),.,-17
CC(=O)N1c2ccccc2N(C)C(=O)C1(C)C,-0.9,4
N#CCCN/N=C/c1ccc(-c2ccc(SC(F)F)cc2)o1,.,-11
COc1cccc2cc(-c3nnc(-c4ccc([N+](=O)[O-])cc4)o3)c(=O)oc12,0.2,.
CC(=O)Nc1ccc2nc(NC(=O)c3ccc(F)cc3)sc2c1,.,-6
Cc1cc(C)c2cc(C(=O)N3CCC(Cc4ccccc4)CC3)[nH]c2c1,-0.1,.
CCC1CCCCN1C(=O)COC(=O)COc1ccc(Br)cc1 (stereo not drawn),-2.9,-24
NC(=S)c1cnc(-c2ccncc2)nc1N,0.3,.
CCOc1ccc(-c2cc(NC(=O)CCSCCc3ccccn3)on2)cc1OCC,.,1
S=C(NCC(c1ccco1)N1CCCC1)Nc1ccccc1 (stereo not drawn),.,-13

# Continued, starting with the last 4 of the part before.
SMILES,MgrA-DNA mod,Sa helicase inh
CCC1CCCCN1C(=O)COC(=O)COc1ccc(Br)cc1 (stereo not drawn),-2.9,-24
NC(=S)c1cnc(-c2ccncc2)nc1N,0.3,.
CCOc1ccc(-c2cc(NC(=O)CCSCCc3ccccn3)on2)cc1OCC,.,1
S=C(NCC(c1ccco1)N1CCCC1)Nc1ccccc1 (stereo not drawn),.,-13
CCOC(=O)N1CCN(C(=O)c2ccc3nc(-c4ccccc4)c(-c4ccccc4)nc3c2)CC1,-1.7,1
Cc1cc(S(=O)(=O)N2CCN=C2c2ccccc2)ccc1F,.,7
COc1ccc(S(=O)(=O)NCc2ccco2)cc1,.,10
Cc1ccc(-c2n[nH]c(=O)c3ccccc23)cc1S(=O)(=O)N1CCN(Cc2ccccc2)CC1,.,-3
C=CCN1C(=O)c2ccccc2Sc2ccc(C(=O)NCC(OC)OC)cc21,0.5,11
C=CCn1c(SCC(=O)c2cccs2)nc2sc(C)cc2c1=O,1.7,0
Cc1cc(=O)oc2c3c(ccc12)OCN(c1ccccc1)C3,.,14
CC(=O)NC12CC3CC(C1)CC(C(=O)Nc1ccc(N4CCCCC4)cc1)(C3)C2,.,9
Cc1ccc(S(=O)(=O)NCCCO)cc1C(=O)O,-1.4,3
CCc1nc2sc3c(c2c(=O)n1O)CCC3,0.1,-1
CCC(=O)N1N=C2CC(C)(C)OCC2C1c1ccccc1 (stereo not drawn),-0.9,-6
O=C(NC1CCCCCC1)C1Cc2ccccc2CN1C(=O)c1ccco1 (stereo not drawn),.,-9
CC1CCN(Cc2ccc(NC(=O)c3ccc4c(=O)n5c(nc4c3)CCCCC5)cc2)CC1,.,23
COC(=O)c1c(NS(=O)(=O)c2ccccc2)csc1C,-3.6,.
O=C(c1cccc(N2C(=O)C3CC=CCC3C2=O)c1)N1CCCc2ccccc21 (stereo not drawn),.,0
Cc1ccc(NC2SC(=O)NC2=O)cc1 (stereo not drawn),1.7,21
N#Cc1c(NC(NC(=O)c2ccccc2)C(=O)c2cccs2)sc2c1CCCC2 (stereo not drawn),1.8,6
CCCCCCCCCCc1ccc(-c2ccccc2)cc1,-2.5,.
O=C1CC(N2CCCCC2)C=C1Nc1ccc(F)cc1 (stereo not drawn),2.2,-1
Cc1n[nH]c(=O)c2noc(/C=C/c3ccc(Cl)c(Cl)c3)c12,.,8
N#CC1=C2SCN(CCCc3ccccc3)CN2C(=O)CC1c1ccc(Cl)cc1 (stereo not drawn),.,12
CCOC(=O)C(C)Sc1nnc(NC(=O)c2cc(Br)ccc2Cl)s1 (stereo not drawn),.,15
FC(F)(F)c1nnc2ccc(N3CCCCC3)nn12,0.8,8
O=C(CS(=O)(=O)c1cn(Cc2ccc(F)cc2)c2ccccc12)NC1CCCCC1,.,24
CC(C)N(C(=O)CSc1ccc(-c2ccc3c(c2)OCCO3)nn1)C(C)C,-1.9,5
COC(=O)CSc1nc2sc3c(c2c(=O)n1-c1ccccc1)CCC3,0.6,6
O=C(Nn1c(-c2ccc(Br)cc2)nc2ccccc2c1=O)c1cccc([N+](=O)[O-])c1,-3.3,.
CCOc1ccc(-n2cc(C(=O)N3CCN(c4ccccc4OC)CC3)c3cc(OC)c(OC)cc3c2=O)cc1,.,-17
CCOC(=O)CSc1nc2ccccc2c(=O)n1-c1ccccc1,.,-12
COC(=O)c1nnn(CC(=O)Nc2ccccc2)c1C(=O)OC,0.5,13
CC(C)n1c(-c2cccc(Br)c2)nc2ccccc21,0.6,8
O=C(COc1ccc2c(c1)OCO2)Nc1ccccc1C(F)(F)F,0.4,10
O=C1NC(=O)c2cc(Cl)c(Cl)cc21,.,6
CCOC(=O)c1cccnc1SC(CC)C(=O)N1CCOCC1 (stereo not drawn),1.1,10
O=c1sn(-c2ccccc2C(F)(F)F)c(=O)n1CC1CC1,4.7,.
CC1=NN(c2ccccc2)C(=O)/C1=C\c1ccc[nH]1,.,9
Cc1ccc(NC(=O)c2c(Cl)nc3ccccn23)cc1,-3.2,-23
CCc1ccc(/C(C)=N/N=C(N)N)cc1,5.3,-3
COc1ccc(N2Cc3ccccc3C2=NC(=O)c2ccncc2)cc1,2.9,21
Cc1cc(C)c(C(=O)COC(=O)c2cccc(OCc3c(C)noc3C)c2)cc1C,.,-25

# In another format: entries from further up
# Screens in order – MgrA-DNA mod	Sa helicase inh
O=C(Nn1c(-c2ccc(Br)cc2)nc2ccccc2c1=O)c1cccc([N+](=O)[O-])c1
→ -3.3	.
CCOc1ccc(-n2cc(C(=O)N3CCN(c4ccccc4OC)CC3)c3cc(OC)c(OC)cc3c2=O)cc1
→ .	-17
CCOC(=O)CSc1nc2ccccc2c(=O)n1-c1ccccc1
→ .	-12
COC(=O)c1nnn(CC(=O)Nc2ccccc2)c1C(=O)OC
→ 0.5	13
CC(C)n1c(-c2cccc(Br)c2)nc2ccccc21
→ 0.6	8

# Further structures follow.
SMILES,MgrA-DNA mod,Sa helicase inh
CCOC(=O)c1c(NC(=O)c2cc3ccccc3o2)sc2c1CC(C)(C)OC2,4.0,16
O=C(OCCN1CCCCC1)c1ccc(O)cc1,.,-2
CC(=O)N1CCn2c3c(c(=O)c4cc(C)ccc42)CCC31 (stereo not drawn),.,43
O=C1N(C2CCCCC2)C(=NC2CCCCC2)SC12CC2,-0.6,.
COc1ccc2c(Cl)c(C(=O)NN)sc2c1,.,6
CC(C)(C)N1NC2(CCCCC2)NC1=O,2.8,9
Cc1cc(C(=O)Cn2c(=O)/c(=C\c3ccsc3)s/c2=C\C(=O)C(C)(C)C)c(C)n1C,.,-15
Cn1nc(C(=O)O)c2ccccc2c1=O,-2.0,-1
CCc1nc2cc(C)nn2c2nc3ccccc3n12,-0.4,4
O=C(CCc1nc2ccccc2c(=O)[nH]1)NCc1ccccn1,.,0
COc1ccc2nc(Nc3nnc(-c4cccs4)o3)sc2c1,.,5
COc1cc(C(F)(F)F)c(C(=O)Nc2cccc(C)c2C)cn1,-2.5,.
Cc1nn(CC(=O)N2CCCC2)c(=O)c2ccccc12,.,6
CCCn1c(=S)[nH]c2ccccc2c1=O,.,-12
CC(=O)N1CCN(Cc2cc(=O)oc3cc(C)ccc23)CC1,.,-5
COc1ccccc1NS(=O)(=O)c1cccc(C(=O)N/N=C/c2c(CO)cnc(C)c2O)c1,.,-58
O=C1Nc2ccccc2N(O)N1c1ccc(S(=O)(=O)N2CCCCCC2)cc1,.,11
O=c1c2ccccc2nc(SCc2ccccc2F)n1CCc1ccccc1,0.9,16
CCOc1ccccc1C(=O)N1CCN(C(c2ccccc2)c2ccccc2)CC1,-2.2,8
COc1ccc(C(=O)NCCCc2nc3ccccc3[nH]2)cc1OC,.,3

# 4 of these compounds in another layout:
structure: Cn1nc(C(=O)O)c2ccccc2c1=O
  MgrA-DNA mod: -2.0 | Sa helicase inh: -1

structure: Cc1cc(C(=O)Cn2c(=O)/c(=C\c3ccsc3)s/c2=C\C(=O)C(C)(C)C)c(C)n1C
  MgrA-DNA mod: . | Sa helicase inh: -15

structure: O=c1c2ccccc2nc(SCc2ccccc2F)n1CCc1ccccc1
  MgrA-DNA mod: 0.9 | Sa helicase inh: 16

structure: CCc1nc2cc(C)nn2c2nc3ccccc3n12
  MgrA-DNA mod: -0.4 | Sa helicase inh: 4

# Other structures:
SMILES,MgrA-DNA mod,Sa helicase inh
O=C(C1CC1)N1CCc2ccccc21,.,17
COc1ccc(CCNC(=O)c2cc3ccccc3c(=O)o2)cc1OC,0.9,5
CCOC(=O)CSc1nc2ccccc2n1C,3.3,.
CCOC(=O)C1CN(c2ccc(C)cc2)CC1=O (stereo not drawn),.,4
CCN(C(=O)c1cccs1)C1CCS(=O)(=O)C1 (stereo not drawn),.,7
COc1ccc(-c2nnc(SCC3CNC(=O)O3)n2C)cc1 (stereo not drawn),.,29
CC(=O)N/C(=C\C=C\c1ccccc1)C(=O)O,0.9,.
O=C(CCc1nc2ccccc2c(=O)[nH]1)Nc1ccc2c(c1)CCC2,.,-2
CC(Oc1ccccc1F)c1nnc(SCC(=O)c2ccc[nH]2)o1 (stereo not drawn),.,-6
CCN(C(=O)C(C)Oc1ccccc1)c1ccccc1C (stereo not drawn),-0.1,16
